Bioassay records as filed in PubChem BioAssay.
Rango-impB inh – inhibitors of Rango-importin beta complex formation; Q14974; Rango CFP/YFP FRET sensor + importin beta, 45 min; Potency, µM (highest dose often 92.2 µM), for inactives: top-dose inhibition of complex formation; 0.031% of 340,000 active; active = rising FRET ratio curve, often small or poorly fitted; inconclusive = mostly compound fluorescence or quenching in the first reads; inactive = flat curves in all reads;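 further: potency means the concentration at half of the fitted maximal effect; 0% = DMSO wells and 100% = buffer wells lacking importin beta; nearly all actives have a fitted effect of over 15% in size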
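Inhibition scored from the CFP 486 nm/YFP 530 nm FRET ratio 45 min after adding 0.125 microM importin beta to 50 nM Rango biosensor preincubated 5 min with compound (room temperature, PBS with DTT, Tween-20, BSA). No-importin wells as positive control.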
miR-21 FLuc – miR-21 reporter, rising signal | Potency, µM (doses to about 38.3 µM), for the others: at the highest dose reporter change, positive = more light | HeLa miR-21 FLuc reporter, luciferase, 48 h | 340,000 tested, under 10 active; active = well fitted rising curve with a large enough effect; inconclusive = small, poorly fitted or top-dose-only effect; inactive = no such curve, though single readings can be large or run the other way;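 further: % of control where 0% means no effect; miR-21 action dims this reporter so a rising signal means less miR-21 action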
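Using DMEM plus 10% FBS, HeLa miR-21-FLuc cells are incubated with test compounds (final up to about 40uM) for 48 hours; firefly luciferase signal is then imaged following reagent-mediated lysis.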
GLA inh pH 4.5 – blocks human alpha-galactosidase A at pH 4.5 | purified enzyme, 4-MU-alpha-Gal fluorescence, pH 4.5 | 230,000 tested, under 10 active | P06280 | AID 1467 | activity change, negative = inhibition, % at 105 µM; inconclusive = small, poorly fitted or top-dose-only inhibition, or a rising curve; inactive = flat fitted curve, though single readings scatter; no compound was filed as active;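 further: 0% = full activity with enzyme and -100% = basal without enzyme; dose as in the result columns while the protocol names 77 µM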
Target sequence (P06280 whole entry, looked up): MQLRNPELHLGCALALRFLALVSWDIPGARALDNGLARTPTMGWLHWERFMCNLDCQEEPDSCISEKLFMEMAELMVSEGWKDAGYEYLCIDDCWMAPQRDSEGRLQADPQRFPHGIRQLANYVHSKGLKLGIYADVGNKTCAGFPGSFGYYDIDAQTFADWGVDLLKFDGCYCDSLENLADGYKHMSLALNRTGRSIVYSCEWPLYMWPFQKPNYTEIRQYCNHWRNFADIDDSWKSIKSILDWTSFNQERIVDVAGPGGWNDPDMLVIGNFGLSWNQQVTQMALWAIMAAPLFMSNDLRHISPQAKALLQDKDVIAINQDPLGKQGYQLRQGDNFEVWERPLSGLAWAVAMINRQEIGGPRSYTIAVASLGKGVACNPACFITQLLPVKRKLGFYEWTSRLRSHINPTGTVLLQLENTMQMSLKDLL
Rango release inh – inhibitors of RanGTP-induced Rango-importin beta complex dissociation. Potency, µM (highest dose often 46.1 µM), inactives show at the top dose activity change, negative = inhibition. Biochemical FRET Rango-importin beta, RanGTP-induced dissociation. O95149+P62826. 0.071% of 340,000 active; active means falling FRET ratio curve, often poorly fitted, with flat reads before Ran was added; inconclusive means other falling curves, or compound fluorescence or quenching; inactive means flat or rising ratio curve;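 further: potency means the concentration at half of the fitted maximal effect; % of control where 0% means no effect; nearly all actives have a fitted effect of over 45% in size; -100% = wells without RanGTP and RCC1; the record marks most hits as doubtful in a second field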
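Recombinant Rango FRET biosensor (EYFP–snurportin 1 IBB–cerulean CFP10) at 0.1 uM premixed with 0.25 uM importin beta in PBS, 1 mM DTT, 0.02% Tween-20, 0.1% BSA. Compound added 5 min; RanGTP-RCC1 (0.6 uM Ran, 2 mM GTP, 0.2 uM RCC1) then triggers release, read at 45 min.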
The depositor's hits bear a star; ? = inconclusive; · = no result given; & = joins results of further samples.

Rango-impB inh	miR-21 FLuc	GLA inh pH 4.5	Rango release inh	smiles
?	-48%	7	8%	C=CCOc1c(Br)cc(/C=N/NC(N)=O)cc1OC
3.9%	-2%	·	-6%	COc1cc(C(=O)N2CCN(Cc3ccc4c(c3)OCO4)CC2)c([N+](=O)[O-])cc1OC
-0.3%	1%	0	-4%	Cc1nn(C)cc1/C=N/NC(=O)Cn1nccc1C
-1.4%	·	·	-10%	CCC/C=C1/CCCOC(C(=O)NCc2ccccn2)(C(F)(F)F)C1 (configuration not stated)
-3.2%	14%	-6	1%	COc1ccc(C(=O)c2ccc(N(C)C)cc2)c2ccccc12
-1.6%	-11%	0	-1%	CC(O)CNCCCOc1cccc(C(F)(F)F)c1 (configuration not stated)
?	6%	·	0%	COc1ccc(S(=O)(=O)NCC2CCCO2)cc1NC(=O)c1ccccc1F (configuration not stated)
-2.2%	-2%	-22	1%	COc1ccc(-c2cc(C(=O)OCC(=O)c3cccc([N+](=O)[O-])c3)c3cc(C)ccc3n2)cc1
?	1%	-1	-14%	COc1ccc(OC)c(/C=N/NC(=O)CSc2cc(C)nc3c(OC)cccc23)c1
-0.4%	·	·	32%	Cc1cc(NC(=O)C(C)SCC(=O)Nc2cc(C(F)(F)F)ccc2N2CCOCC2)no1 (configuration not stated)
·	4%	6	·	Cn1c(=O)c2[nH]c(SCc3ccccn3)nc2n(C)c1=S
-2.1%	0%	·	-12%	O=C(CC12CC3CC(CC(C3)C1)C2)NCc1ccc(F)cc1
-2.8%	28%	·	-4%	Cc1oc2c(F)c(F)c(F)c(F)c2c1S(=O)(=O)Nc1cccc(C(F)(F)F)c1
-1.6%	-4%	·	-2%	Cc1cc(C)cc(NC(=O)[C@@H](NC(=O)c2ccco2)C(C)C)c1
-3.1%	0%	6	-16%	Cn1cc(C(CC(=O)O)C(=O)O)c2ccccc21 (configuration not stated)
1.0%	1%	4	10%	FC(F)C(F)(F)C1=CC(c2ccccc2)=NCCN1
-0.4%	-5%	4	35%	CCn1c(CNc2ccc(Cl)cc2)nnc1SCC#N
?	-13%	4	?	COC(=O)Nc1ccc(C)c2nsnc12
-3.4%	17%	-13	7%	COc1ccc(/C=N/NC(=O)c2cccnc2)cc1CSc1nc2ccccc2s1
?	-27%	-9	?	CC(C)CNC(=O)COC(=O)c1c2c(nc3ccccc13)/C(=C/c1cccs1)CC2
-0.2%	-26%	-6	10%	Cc1ccc(NC(=S)c2nc3ccccc3[nH]2)c(C)c1
0.1%	0%	·	-8%	O=C(NCc1ccc(F)cc1)C1CC(=O)N(Cc2ccco2)C1 (configuration not stated)
4.8%	-2%	-19	12%	O=c1cnnc(N/N=C/c2cccs2)[nH]1
2.0%	-55%	·	-5%	C/C(=N\NC(=O)c1nn(C)c(C)c1Br)c1ccc(NC(=O)C2CCCC2)cc1
-0.6%	5%	·	-1%	Cc1nc(SCC(=O)N2CCOCC2)c2c(C)c(C)sc2n1
?	-36%	6	-16%	COc1ccc(C(=O)Cc2ccccc2)cc1OC
-0.7%	3%	-10	1%	O=C1CCCN2N=C(SCC(=O)N3N=C(c4ccc(Br)cc4)CC3c3ccc(F)cc3)SC2=N1 (configuration not stated)
-3.1%	·	·	-13%	Cc1c(NC(=O)COC(=O)Cn2cc(C(F)(F)F)ccc2=O)cccc1[N+](=O)[O-]
?	9%	18	?	C/C(=N/NC(N)=S)c1cc2ccc(O)cc2oc1=O
-2.5%	1%	·	-10%	O=C(O)c1ccc2c(c1)C(=O)N(c1ccc([N+](=O)[O-])cn1)C2=O

Among those listed so far, three have a furan ring, fused or not:
Rango-impB inh	miR-21 FLuc	GLA inh pH 4.5	Rango release inh	smiles
-2.8%	28%	·	-4%	Cc1oc2c(F)c(F)c(F)c(F)c2c1S(=O)(=O)Nc1cccc(C(F)(F)F)c1
-1.6%	-4%	·	-2%	Cc1cc(C)cc(NC(=O)[C@@H](NC(=O)c2ccco2)C(C)C)c1
0.1%	0%	·	-8%	O=C(NCc1ccc(F)cc1)C1CC(=O)N(Cc2ccco2)C1 (configuration not stated)

(more compounds)
Rango-impB inh	miR-21 FLuc	GLA inh pH 4.5	Rango release inh	smiles
-1.0%	-17%	·	3%	CCOc1ccc(Nc2ccc(C(=O)O)cc2[N+](=O)[O-])cc1
1.4%	15%	-4	4%	O=C(Cc1cccs1)N(c1ccc(Br)cc1)C1C=CS(=O)(=O)C1 (configuration not stated)
-3.1%	-1%	·	5%	CC1CN(S(=O)(=O)c2ccccc2)C(C)N1C(=O)N1CCOCC1 (configuration not stated)
-0.2%	-2%	-2	-7%	CC1CC1C(=O)OCC(=O)NC(=O)NCc1ccco1 (configuration not stated)
6.0%	0%	-2	-2%	CCOC(=O)C1(CCCc2ccccc2)CCN(C(=O)Cc2nonc2C)CC1
-2.3%	-5%	-11	-8%	CCSc1nc(-c2ccco2)ccc1C#N
-2.6%	-14%	-11	16%	O=C(/C(=N/N=C/c1ccc(O)c(O)c1)c1ccccc1)c1ccccc1
3.5%	-13%	9	-12%	O=C(N/N=C\c1ccccc1)c1sccc1-n1cccc1
3.0%	-3%	1	-3%	CC1C/C(=N\NC(=O)c2cccnc2)CC(C)(C)C1 (configuration not stated)
-4.1%	·	6&10	-19%	COc1cc(S(C)=O)ccc1-c1nc2ncccc2[nH]1 (configuration not stated)
0.1%	14%	-3	-4%	O=C(NNC(=O)c1cccc(S(=O)(=O)N2CCc3ccccc32)c1)c1ccccc1
2.8%	·	·	28%	COc1ccc(CN2C[C@H]3CCCN3c3cc(Br)ccc3S2(=O)=O)cc1
-3.6%	0%	·	-10%	O=C(CNC(=O)c1ccc(Br)o1)NCc1ccc(Cl)cc1Cl
-2.9%	-3%	0	-8%	O=C(CN(Cc1ccc2c(c1)OCO2)C(=O)CSc1nc2ccccc2o1)NC1CCCCC1
-3.3%	6%	-4	-4%	COc1ccc(NC(=O)CSc2ncnc3c2nnn3-c2ccc(F)cc2)c(OC)c1
0.2%	·	·	-10%	C[C@H](CO)N1C[C@H](C)[C@@H](CN(C)S(=O)(=O)c2ccccc2)Oc2c(NC(=O)Nc3ccccc3)cccc2C1=O
-2.1%	·	·	-15%	COc1ccc(NC(=O)CSCC(=O)Nc2ccc(C)c(S(=O)(=O)N3CCCCCC3)c2)cc1
-3.4%	-27%	·	13%	COC(=O)c1ccc2c(C)c(C(C)(C)O)[nH]c2c1
-2.7%	-3%	3	0%	COC(=O)CNS(=O)(=O)c1ccc(OC)cc1
0.6%	·	·	?	CCOC(=O)N1CCN(C(=O)c2cccc(S(=O)(=O)Nc3ccc(OC)cc3)c2)CC1
5.0%	·	·	12%	Cc1occc1-c1nnc(SCC(=O)N(C)c2ccccc2)o1
-1.2%	14%	-2	8%	NC(=O)c1ccc(NC(=O)COC(=O)C2(c3cccc(F)c3)CCCC2)cc1
-2.9%	4%	·	4%	CC(CNC(=O)c1ccc(OC2CCN(Cc3ccccn3)CC2)cc1)Oc1cccnc1 (configuration not stated)
-0.2%	0%	-2	-12%	COc1cc(NC(=O)c2ccc3c(=O)n(Cc4ccco4)c(=S)[nH]c3c2)cc(OC)c1OC
-1.2%	26%	-4	-3%	CCOC(=O)c1c(-c2ccc(C)cc2C)csc1NC(=O)CSc1nnnn1C
-1.8%	-2%	7	-15%	CC1CC(C)CN(S(=O)(=O)c2ccc(C(=O)NCc3ccco3)cc2)C1 (configuration not stated)
0.2%	-47%	·	21%	CN(C)c1ccc(C(=O)OCC(=O)N2CCCC2)cc1
5.1%	-1%	-19	9%	CCN(Cc1ccccc1)Cc1nc(CCc2ccccc2)no1
3.3%	-10%	·	5%	Cc1cc2[nH]c(=O)c(=O)[nH]c2cc1S(=O)(=O)NC1CCC(C)CC1 (configuration not stated)
2.9%	-11%	-4	-6%	CC1=NNC(=O)C1C(c1cccc(O)c1)C(C#N)C#N (configuration not stated)
-1.5%	·	·	-3%	COc1ccc(S(=O)(=O)N2CCN(C(=O)CCOc3ccccc3)CC2)cc1OC
-4.0%	-10%	-4	1%	COC(=O)c1ccc(NC(=O)Nc2ccc(OC)c(OC)c2)cc1
6.5%	0%	-2	20%	CCc1nnc(NC(=O)c2ccc(N(C)S(=O)(=O)c3ccccc3)cc2)s1
-3.7%	-2%	-26	-3%	Cc1ccc(N(CC(=O)NCCSCc2ccco2)S(=O)(=O)c2ccc(C)cc2)cc1
-1.0%	0%	8	1%	CC1=C(C(=O)NCCN2CCOCC2)C2(CCC(C)CC2)OC1=O (configuration not stated)
-2.9%	-9%	-4	-14%	O=C(Cn1ncc2c1-c1ccccc1OC2)N(Cc1ccco1)C1CCCCC1
2.4%	·	·	-5%	CC(Oc1ccccc1)C(=O)N1CCN(c2ncccn2)CC1 (configuration not stated)
0.4%	·	·	-3%	CC1CCCCC1NC(=O)c1cc(S(=O)(=O)N2CCOCC2)ccc1Cl (configuration not stated)
-0.5%	?	·	7%	COc1ccccc1/C=C(\NC(=O)c1cccc(C)c1)C(=O)Nc1ccccn1
-3.1%	-6%	1	-5%	C/C(=N\OC(=O)NC1CCCCC1)c1sc(-c2ccccc2)nc1C
-0.8%	-12%	-9	4%	O=C(COC(=O)C1=COCCO1)Nc1ccccc1Oc1ccccc1
-1.7%	·	·	-1%	COc1ccc(-c2nnc(NC(=O)CS(=O)(=O)c3ccc(F)cc3)o2)c(OC)c1
0.9%	2%	·	20%	COc1ccccc1NC(=O)CCCCCN1C(=O)c2cccc([N+](=O)[O-])c2C1=O
3.3%	·	·	-15%	O=C(O)c1cc2c(cc1NC(=O)C1CCCC1)OCCO2
0.1%	-77%	0	-2%	Cc1cccc(NC(=S)NNC(=O)c2csc(C)c2)c1
-1.2%	·	·	-7%	O=C(NN=Cc1ccc2c(c1)OCO2)c1ccccc1
-4.3%	-2%	6	5%	CCC(CO)N=CC1=C(O)CC(C)(C)CC1=O (configuration not stated)
?	16%	-13	?	Cn1cccc1/C=C1\CCc2ccccc2C1=O
3.6%	0%	·	-8%	O=C1C(=O)N(CCN2CCOCC2)C(c2ccccc2F)/C1=C(\O)c1ccc(S(=O)(=O)N2CCOCC2)cc1 (configuration not stated)
0.9%	0%	·	-3%	O=C(COc1ccc2ccc(=O)oc2c1)Nc1cccnc1
0.9%	·	·	8%	CCN1C(N(C)C)=NC[C@@H]1Cc1ccccc1
-0.7%	4%	·	-2%	COc1ccc(-c2cc(=O)oc3cc(OCC(=O)N[C@@H](Cc4c[nH]c5ccccc45)C(=O)O)ccc23)cc1
-2.5%	1%	-4	2%	Cc1ccc(S(=O)(=O)Nc2cc(C)nn2-c2ccccc2)cc1
·	7%	-6	·	CC(C)(C)C1CC=C2C(C#N)=C(N)C(C#N)(C#N)C(c3cccs3)C2C1 (configuration not stated)
-3.5%	-6%	-6	-13%	CC(=O)C1=C(O)C(=O)N(c2nccs2)C1c1ccccc1 (configuration not stated)
?	3%	-2	5%	CC(=O)Nc1ccc(S(=O)(=O)N(CC(=O)Nc2cc(C)on2)Cc2ccc(F)cc2)cc1
2.4%	-27%	-3	-9%	Cc1ccc(NC(=S)Nc2ccccn2)c(C)c1

6 records picked at random from the list so far:
Rango-impB inh	miR-21 FLuc	GLA inh pH 4.5	Rango release inh	smiles
?	16%	-13	?	Cn1cccc1/C=C1\CCc2ccccc2C1=O
-4.3%	-2%	6	5%	CCC(CO)N=CC1=C(O)CC(C)(C)CC1=O (configuration not stated)
6.5%	0%	-2	20%	CCc1nnc(NC(=O)c2ccc(N(C)S(=O)(=O)c3ccccc3)cc2)s1
·	7%	-6	·	CC(C)(C)C1CC=C2C(C#N)=C(N)C(C#N)(C#N)C(c3cccs3)C2C1 (configuration not stated)
-2.5%	1%	-4	2%	Cc1ccc(S(=O)(=O)Nc2cc(C)nn2-c2ccccc2)cc1
-3.5%	-6%	-6	-13%	CC(=O)C1=C(O)C(=O)N(c2nccs2)C1c1ccccc1 (configuration not stated)

Not all compounds are listed; the hit share may differ from the screen's.
